High-throughput results: PubChem BioAssay, National Center for Advancing Translational Sciences (NCATS)
NPR1 antag: human Npr1 receptor antagonism; actives 1.6% (n = 76,000); AID 1347048; HEK293 hNpr1 GloSensor cGMP, ANP-stimulated luminescence; Potency, µM (titrated, usually from 46.3 µM), without a hit: top-dose activity change, negative = inhibition, most hits filed as inhibitors; P16066; active = well fitted inhibition curve with a large enough effect; inconclusive = small, poorly fitted or top-dose-only effect; inactive = no such curve, though single readings can be large or run the other way;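 also: nearly all actives have a fitted effect of over 60% in size; nearly all hits also lower the signal before the agonist is added; a reference antagonist and vehicle were the controls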
Target sequence (P16066 whole entry, looked up): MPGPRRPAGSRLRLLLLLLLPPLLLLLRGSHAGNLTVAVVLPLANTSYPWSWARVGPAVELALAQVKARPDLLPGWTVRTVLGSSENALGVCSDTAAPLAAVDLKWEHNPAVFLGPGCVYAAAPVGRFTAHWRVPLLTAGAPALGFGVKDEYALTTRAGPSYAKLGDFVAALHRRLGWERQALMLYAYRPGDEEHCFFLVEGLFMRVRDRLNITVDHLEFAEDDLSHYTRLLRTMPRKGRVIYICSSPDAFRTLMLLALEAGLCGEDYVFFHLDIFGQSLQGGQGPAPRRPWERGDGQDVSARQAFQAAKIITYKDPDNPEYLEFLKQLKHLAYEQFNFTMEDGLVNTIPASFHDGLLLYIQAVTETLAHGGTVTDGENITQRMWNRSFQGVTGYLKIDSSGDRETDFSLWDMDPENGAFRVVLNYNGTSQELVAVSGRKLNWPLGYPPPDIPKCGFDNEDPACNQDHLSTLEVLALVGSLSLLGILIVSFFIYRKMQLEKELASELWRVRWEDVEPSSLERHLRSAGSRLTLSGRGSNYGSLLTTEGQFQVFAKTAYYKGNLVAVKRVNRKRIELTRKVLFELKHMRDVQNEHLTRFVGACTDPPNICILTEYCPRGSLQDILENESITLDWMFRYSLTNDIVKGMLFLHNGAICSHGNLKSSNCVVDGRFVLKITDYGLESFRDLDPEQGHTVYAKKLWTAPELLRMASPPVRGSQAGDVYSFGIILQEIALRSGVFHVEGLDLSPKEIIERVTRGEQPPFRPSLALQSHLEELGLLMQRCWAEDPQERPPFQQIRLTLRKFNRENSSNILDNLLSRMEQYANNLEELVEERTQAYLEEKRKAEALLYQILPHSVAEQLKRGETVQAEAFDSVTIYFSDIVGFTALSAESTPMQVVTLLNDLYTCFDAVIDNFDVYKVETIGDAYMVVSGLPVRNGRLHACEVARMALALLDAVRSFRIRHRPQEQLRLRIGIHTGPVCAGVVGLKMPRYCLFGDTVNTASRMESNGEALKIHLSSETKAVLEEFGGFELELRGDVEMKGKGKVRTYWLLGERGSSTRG
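HEK293 cells stably expressing human Npr1 and cGMP GloSensor pGS-40F, loaded 2 h with 2% GloSensor reagent, given compound 30 min at room temperature. Luminescence read before and 20 min after 0.1 nM hNppA.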
* = called active by the depositor; ? = inconclusive; [ ] = remark or other dose. % is scaled to controls: 0 for no effect and ±100 for the full control effect; potency is read from the fitted curve at half-maximal effect. Some of the compounds tested; count on the stated rates, not on these rows.

O=C(Cc1cccc(F)c1)N1CCC(n2cc(-c3nc(-c4ccccc4)no3)nn2)C1 (configuration not stated)
- NPR1 antag: -20%
CC1=C[C@@H](CNC(=O)C2CCCCC2)[C@H](C(C)C)C[C@H]1Cc1nc2ccc(C)cc2[nH]1
- NPR1 antag: -20%[70.6 µM]
CCOc1ccccc1C(=O)NC1CCN(c2cc(-c3cccs3)[nH]n2)C1 (configuration not stated)
- NPR1 antag: -22%
O=C(c1cccc(Cl)c1)N1CCC(N(Cc2ccccc2)C2CCOCC2)CC1
- NPR1 antag: 6%
O=C(Cn1c(=O)c2c(n1Cc1ccccc1)CN(Cc1ccccc1)CC2)NCc1ccc(F)cc1
- NPR1 antag: ?
O=C1[C@@H]2C[C@@H](O)CN2C2(CN(Cc3cccnc3)C2)C(=O)N1Cc1ccccc1
- NPR1 antag: 1%[70.6 µM]
Cc1cc(C)n(CC(=O)N2CC(N(C)Cc3cccnc3)C2)n1
- NPR1 antag: 1%
Cc1ccsc1C(=O)N1CCCC1c1noc(COc2ccc(F)cc2)n1 (configuration not stated)
- NPR1 antag: -8%
COCCn1ncc(N2CCC(NC(=O)CC3CCCC3)CC2)cc1=O
- NPR1 antag: -1%
COCCN1CCNc2cc(Nc3ccc(N4CCOCC4)cc3)ncc2C1
- NPR1 antag: 2%[70.6 µM]
COc1ccccc1OCc1cc(C(=O)NC[C@H]2C[C@H]3C=C[C@H]2C32CC2)n[nH]1
- NPR1 antag: 3%
CCc1noc([C@@H]2CC(F)(F)CN2C(=O)Cc2cccnc2)n1
- NPR1 antag: 6%
Cc1noc(-c2ccccc2OC2CCN(S(C)(=O)=O)C2)n1 (configuration not stated)
- NPR1 antag: 6%
CC(C)N1C(=O)C2(CCCCC2)C1C(=O)N1CCN(c2ccccn2)CC1 (configuration not stated)
- NPR1 antag: -7%
COc1ccc(-c2nc3cc(C)ccc3cc2CN2CCC(N(C)C)C2)cc1 (configuration not stated)
- NPR1 antag: 2%

CN(Cc1ccccc1)C(=O)[C@H]1CCC[C@H]1NC(=O)c1ccncc1
- NPR1 antag: -3%
COc1ccc(C(=O)N2CCC3(CC2)OC(=O)N(Cc2ccc(O)cc2)C3(C)c2ccccc2)cc1 (configuration not stated)
- NPR1 antag: -10%
Cc1cccc(NC(=O)c2ccc(CN3C(=O)NC4(CCOCC4)C3=O)cc2)c1
- NPR1 antag: -25%
COc1cccc(NC(=O)N[C@H]2CCN(C(=O)CC(C)(C)C)[C@@H]2C(=O)N[C@@H](CCCNC(=O)CC(C)(C)C)C(N)=O)c1
- NPR1 antag: 6%
CC(=O)N1CCC(NC2(Cc3cc(CN(C)C)on3)COC2)CC1
- NPR1 antag: 6%[70.6 µM]
CC1(COc2cccnc2)COc2ccc(C(=O)NCc3cccs3)cc2N1 (configuration not stated)
- NPR1 antag: ?
COCCOC1CCOC2(CCN(C(=O)c3ccccc3F)CC2)C1 (configuration not stated)
- NPR1 antag: 13%
CCCCNC(=O)Cc1csc2nc(C)c(-c3cc(C)n(-c4ccc(F)cc4)n3)c(=O)n12
- NPR1 antag: 0%
COC(=O)[C@H]1CN(C(=O)c2cccnc2)CCN1C(=O)CSC
- NPR1 antag: 1%[70.6 µM]
CCOc1ccccc1CN(C)C(=O)CN1CC(c2ccccc2)CC1=O (configuration not stated)
- NPR1 antag: 3%
Cc1ccnc(NC(=O)C2c3ccccc3C(=O)N(CC(C)C)C23CCCC3)c1 (configuration not stated)
- NPR1 antag: -1%
O=[S+]([O-])(c1ccccc1)N1CC2(COCCN(Cc3ccc4c(c3)CCO4)C2)C1
- NPR1 antag: -25%[70.6 µM]
CCCN1CCc2[nH]cnc2C12CCN(C(=O)[C@H]1Cc3ccccc3CN1)CC2
- NPR1 antag: 9%
O=C(c1cc2cn(C3CC3)cc2s1)N1CCc2ccccc2C1
- NPR1 antag: -1%
COC(=O)c1ccc2nc(CO[C@H]3CN(Cc4ccc5c(c4)OCO5)C[C@H]3F)[nH]c2c1
- NPR1 antag: -17%[70.6 µM]

COCCN1C(=O)c2cccn2CC1CNC(=O)Cc1ccccc1F (configuration not stated)
- NPR1 antag: 2%
O=C(NC1CC1)[C@@H]1CN(Cc2cc(F)c(F)cc2F)C[C@H]1CO
- NPR1 antag: 1%
Cc1ccc(-c2ccc3nnc(CNC(=O)c4ccc(Cl)s4)n3n2)cc1
- NPR1 antag: 16%
CC(C)CNC(=O)N1C[C@@H]2CCCN3CCC[C@@H]([C@H]23)[C@H]1CCCC(=O)NCC1CC1
- NPR1 antag: -8%
COC[C@@H]1CN(C(=O)COc2ccc(F)cc2)C[C@H]1c1ccccn1
- NPR1 antag: -1%
CNC(=O)c1cc[nH]c1C1CCCN(C(=O)c2cscn2)C1 (configuration not stated)
- NPR1 antag: 4%
CCOCCOC1CCN(S(=O)(=O)Cc2ccccc2F)CC1
- NPR1 antag: 0%
Cn1nc(C2CCN(C(=O)c3ccc4ncccc4c3)CC2)c2c1CCOC2
- NPR1 antag: 2%
CCn1ccc(C(=O)N2CCC(N3C[C@H](O)C[C@H]3C(=O)NCc3cccc(OC)c3)CC2)n1
- NPR1 antag: 4%
CCn1c(CC2CCN(Cc3cccc(C(=O)OC)n3)CC2)n[nH]c1=O
- NPR1 antag: -9%
CC(=O)NCC(=O)N1CCC(Oc2ccccc2-c2nc(C3CC3)no2)C1 (configuration not stated)
- NPR1 antag: -2%
Cc1ccc(NC(=O)C2CC(=O)N(c3n[nH]c4cccc(F)c34)C2)c(C)c1 (configuration not stated)
- NPR1 antag: 4%
Cc1ccc(C(=O)N2CCC3(CC2)CC(N(C(=O)c2ccccc2)C2CC2)CCO3)cn1 (configuration not stated)
- NPR1 antag: -2%
O=C(Nc1ccc(-c2cccc(F)c2)cc1)C1CCCN1Cc1cnc[nH]1 (configuration not stated)
- NPR1 antag: -16%
O=C(NC1C[C@H]2CC[C@@H](C1)N2C(=O)Cc1ccc(Cl)cc1)c1ccncc1 (some centres not stated)
- NPR1 antag: -7%

COCc1ccc2c(c1)c(OC(C)(C)C(=O)NCC1CCOCC1)nn2Cc1ccccc1
- NPR1 antag: 1%
CC1CCN(Cc2nnnn2CC(=O)N(C)Cc2ccccn2)CC1
- NPR1 antag: 2%
CC(C)N1C[C@H](O)C[C@H]1c1nnc2n1CCN(C(=O)c1ccsc1)C2
- NPR1 antag: 5%
CC(C)NC(=O)N1CCCCCNC(=O)CC1c1ccccc1 (configuration not stated)
- NPR1 antag: 8%
Cc1noc(-c2ccccc2Cl)c1C(=O)NCc1cc(F)cc(F)c1
- NPR1 antag: 3%
CCN(Cc1ccncc1)C(=O)CCC[C@@H]1[C@H]2CCCN3CCC[C@@H](CN1C(C)=O)[C@@H]23
- NPR1 antag: 5%
CNC(=O)[C@@H](c1ccccc1OC)N1CCC[C@H]1C(=O)N1CC[C@@H](O)C1
- NPR1 antag: 4%[70.6 µM]
O=C(c1ccccc1)N1CCCC2(C1)C(=NC1CCCC1)NC(=O)N2c1cc(F)cc(F)c1 (configuration not stated)
- NPR1 antag: -20%
Cc1noc(C)c1[S+](=O)([O-])N1CCC(c2nn(C)c(=O)[nH]2)CC1
- NPR1 antag: 0%
CCOc1ccccc1C1NC(=O)N(CC(=O)Nc2ccc(C)cc2C)C2=C1C(=O)OC2 (configuration not stated)
- NPR1 antag: -2%
COc1ccc(C(=O)NCC2Cn3cccc3C(=O)N2Cc2ccccc2)cc1 (configuration not stated)
- NPR1 antag: -9%
Cn1ccc2c(C(=O)N3CCCC(c4ccc(C(=O)O)cc4)C3)cccc21 (configuration not stated)
- NPR1 antag: 0%
Cc1cc(NC(=O)C2CCN(C(=O)c3ncn4c3COC(c3ccc(F)cc3)C4)CC2)ccc1Cl (configuration not stated)
- NPR1 antag: -3%
COc1cc(CCC(=O)NC2CCc3nnc(C4CC4)n3CC2)on1 (configuration not stated)
- NPR1 antag: 0%
CC(C)N1C[C@H](O)C[C@H]1c1nnc2n1CCN(C(=O)CC1CCCC1)CC2
- NPR1 antag: 3%

Part of the list above, with bars between the fields:
SMILES | NPR1 antag
CNC(=O)[C@@H](c1ccccc1OC)N1CCC[C@H]1C(=O)N1CC[C@@H](O)C1 | 4%[70.6 µM]
O=C(c1ccccc1)N1CCCC2(C1)C(=NC1CCCC1)NC(=O)N2c1cc(F)cc(F)c1 (configuration not stated) | -20%
Cc1noc(C)c1[S+](=O)([O-])N1CCC(c2nn(C)c(=O)[nH]2)CC1 | 0%
CCOc1ccccc1C1NC(=O)N(CC(=O)Nc2ccc(C)cc2C)C2=C1C(=O)OC2 (configuration not stated) | -2%
COc1ccc(C(=O)NCC2Cn3cccc3C(=O)N2Cc2ccccc2)cc1 (configuration not stated) | -9%

(continued)
Cc1cc2nc3n(c(=O)c2n1CC(=O)N1CCCc2ccccc21)CCCCC3
- NPR1 antag: -12%
O=C(O)C[C@@H]1CCN(C(=O)C(=O)O)C[C@@H]1CC1=NCCc2ccccc21
- NPR1 antag: -3%[70.6 µM]
Cc1cccc(OCC(=O)N2CCC(Cc3nc(-c4cnccn4)no3)CC2)c1
- NPR1 antag: -3%
O=C(O)c1cccc2c1CCN2S(=O)(=O)c1ccccc1
- NPR1 antag: 3%
CCCOc1ccc(CN2C(=O)C3(CCOCC3)CC2c2nnnn2CCOC)cc1 (configuration not stated)
- NPR1 antag: -5%
O=c1ccc(CN2CCN(c3ccccc3F)CC2)cn1CC1CC1
- NPR1 antag: -20%
O=C1CCN(Cc2ccncc2)CCCC(C(=O)NCC2CC2)CCN1 (configuration not stated)
- NPR1 antag: 4%
COC1C(=O)N(c2cccc(F)c2)C12CCN(C(=O)NCc1ccc(C)cc1)CC2 (configuration not stated)
- NPR1 antag: -1%
O=C(c1ccc(F)cc1)N1CCn2c(nnc2C2CC2)C1
- NPR1 antag: 2%[70.6 µM]
Cn1nc(C(=O)NC2CCN(c3cc(-c4ccccc4)[nH]n3)CC2)c2ccccc21
- NPR1 antag: -11%
COc1ccc(C)cc1NC(=O)Cn1ccn2nc3c(c2c1=O)CCCC3
- NPR1 antag: -2%
CCNC(=O)O[C@@H]1CO[C@H]2[C@@H]1OC[C@@H]2NC(=O)c1cccc(C(=O)OC)c1
- NPR1 antag: 6%[70.6 µM]
COc1cc(OC)cc(OCc2nnc(C(=O)N3CCC[C@@H]3C)n2-c2ccccc2)c1
- NPR1 antag: 5%[70.6 µM]
COCCNC(=O)C1CCN(C(=O)C2CN(c3ccc(OC)cc3)C(=O)N2)C1 (configuration not stated)
- NPR1 antag: 34%[activator]
NC(=O)c1ccc2[nH]c(CN3CCC(Oc4ncccn4)CC3)cc(=O)c2c1
- NPR1 antag: 1%

CCn1nccc1C(=O)N1CCC(Cc2ccc(C(=O)NCCOC)cc2)CC1
- NPR1 antag: 5%
CC(C)NC(=O)N(C1CCOCC1)C1CN(S(=O)(=O)c2cn(C)cn2)C1
- NPR1 antag: 5%
COc1ccc(N2CC(c3noc(-c4ccc(C(C)(C)C)cc4)n3)CC2=O)cc1 (configuration not stated)
- NPR1 antag: ?
O=C(Cn1nc2c(cc1=O)CCCC2)NCCCN1CCOCC1
- NPR1 antag: -4%
CN(C)c1ccc(CN2CCNc3cc(Nc4ccccc4)ncc3C2)cc1
- NPR1 antag: -18%[70.6 µM]
CCCN1C(=O)Cc2ccccc2C1C(=O)NCc1ccc(F)c(Cl)c1 (configuration not stated)
- NPR1 antag: -25%
COc1ccc(-c2nc(C(C)C)nc3c2CCN(C(=O)NC2CCCC2)CC3)cc1
- NPR1 antag: 2%
COc1ccc(C2Cn3nnc(-c4noc(-c5cc(F)ccc5Cl)n4)c3CO2)cc1 (configuration not stated)
- NPR1 antag: 1%
O=C(NCC1CC1)c1nc2c(o1)CCN(Cc1cccc(F)c1F)CC2
- NPR1 antag: 22µM*
CN1C(=O)CCC2(CNC(=O)CCc3nc(-c4ccccc4)no3)CCC=C12 (configuration not stated)
- NPR1 antag: 2%
O=C(c1cccs1)N1CC[C@H](c2nnc(Cc3c[nH]c4ccccc34)o2)C1
- NPR1 antag: -7%[70.6 µM]
C=CCCC(CN1CCOCC1)Oc1ccc(-c2ccccc2)nn1 (configuration not stated)
- NPR1 antag: -2%
CCOc1cc(C(=O)NC2CCN(c3cc(-c4ccccc4)[nH]n3)CC2)cc(OCC)c1OCC
- NPR1 antag: -1%
COc1cccc(-c2ccc(CN3CCN(c4cc(Cl)ncn4)C(=O)C3)cc2)c1
- NPR1 antag: ?
O=C(Cc1csc(-c2ccccc2)n1)N[C@H](c1ccccn1)C1CC(O)C1 (some centres not stated)
- NPR1 antag: 2%

O=C(CCc1ccccc1)N1CCC(Oc2cnc3c(ccn3-c3cncnc3)c2)CC1
- NPR1 antag: -29%[70.6 µM]
O=C(N[C@H]1CCN2C(=O)c3ccc(Cl)cc3NC(=O)[C@H]12)C1CCCC1
- NPR1 antag: 0%[70.6 µM]
CS(=O)(=O)NC[C@H]1O[C@@H](CO)[C@@H](O)C1N1CCN(c2ccccc2)CC1 (some centres not stated)
- NPR1 antag: 2%
COc1ccc(C(C)NC(=O)c2noc(-c3ccc[nH]c3=O)n2)cc1OC (configuration not stated)
- NPR1 antag: 1%
COCCOC1CCN(C(=O)Cc2ccccc2)CC1
- NPR1 antag: -1%
Cc1noc([C@@H]2CNC[C@H]2C(=O)N(C)Cc2ccc(N3CCOCC3)cc2)n1
- NPR1 antag: 2%
CCc1noc(-c2cn(C3CCCN(C(=O)COc4ccccc4)C3)nn2)n1 (configuration not stated)
- NPR1 antag: -1%
CC(C)NC(=O)CC[C@@H]1CNC(=O)[C@@H]2C[C@H](NCc3ccccc3)CN12
- NPR1 antag: 3%[70.6 µM]
O=C(NC(C(=O)N1CCCC1)C1CCN(C(=O)c2ccc3c(c2)OCO3)CC1)c1ccc(F)cc1 (configuration not stated)
- NPR1 antag: 1%
CC(=O)N1CCC(CC(=O)N2CCCC(c3[nH]ccc3C(N)=O)C2)CC1 (configuration not stated)
- NPR1 antag: 8%
CN(C)C[C@@H]1CN(c2ncccn2)C[C@H]1NC(=O)c1cc(F)ccc1Cl
- NPR1 antag: 10%
